Screening data as filed in PubChem BioAssay.
Menin-MLL FL inh: inhibitors of human menin-MLL interaction, wild-type MLL peptide. Fluorescence polarization, fluorescein-MLL peptide displacement from menin. FP activity change, % at 61.4 µM. 290,000 tested, under 10 active. AID 1766; inconclusive = falling polarisation curve, or a change in total fluorescence; inactive = total fluorescence flat and polarisation flat or rising; no compound was filed as active; the % refers to the polarisation; negative = inhibition;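 also: % of control where 0% means no effect; inhibitors lower the polarisation; unlabelled MLL peptide was the positive control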
Sfp PPTase inh: blocks B. subtilis Sfp PPTase activity. Q9F4F7. Potency, µM, inactives show max response, negative = inhibition, most hits filed as inhibitors. Biochemical Sfp PPTase activity, qHTS. 310,000 tested, 3.5% active; active = well fitted inhibition curve with a large enough effect; inconclusive = small, poorly fitted or top-dose-only effect, or another doubt; inactive = no such curve, though single readings can be large or run the other way;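 also: the enzyme is Sfp with the accession as filed and its product quenches rhodamine fluorescence; potency is read from the fitted curve at half-maximal effect; 0% = enzyme reaction without inhibitor and -100% = no enzyme wells; top concentration of the series not given in the record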
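Reaction rates are the 30-min fluorescence difference (ex 525, em 598 nm) in wells containing 15 nM Sfp, 5 uM rhodamine-CoA and 12.5 uM BHQ-2-YbbR at pH 7.6 with 10 mM MgCl2.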
TRPV1 potentiator: potentiators of human vanilloid receptor 1 (TRPV1); potentiation, % at 8.33 µM; TRPV1-expressing cells, Fluo-8 calcium influx, capsaicin EC20 potentiation; host cell line not named in the record; control for the full effect not named in the record; 320,000 tested, 0.02% active; Q8NER1; active means potentiation above 80%; inconclusive means 30% to 80%; inactive means below 30%; also: 0% is about no effect
Target sequence (Q8NER1 whole entry, looked up): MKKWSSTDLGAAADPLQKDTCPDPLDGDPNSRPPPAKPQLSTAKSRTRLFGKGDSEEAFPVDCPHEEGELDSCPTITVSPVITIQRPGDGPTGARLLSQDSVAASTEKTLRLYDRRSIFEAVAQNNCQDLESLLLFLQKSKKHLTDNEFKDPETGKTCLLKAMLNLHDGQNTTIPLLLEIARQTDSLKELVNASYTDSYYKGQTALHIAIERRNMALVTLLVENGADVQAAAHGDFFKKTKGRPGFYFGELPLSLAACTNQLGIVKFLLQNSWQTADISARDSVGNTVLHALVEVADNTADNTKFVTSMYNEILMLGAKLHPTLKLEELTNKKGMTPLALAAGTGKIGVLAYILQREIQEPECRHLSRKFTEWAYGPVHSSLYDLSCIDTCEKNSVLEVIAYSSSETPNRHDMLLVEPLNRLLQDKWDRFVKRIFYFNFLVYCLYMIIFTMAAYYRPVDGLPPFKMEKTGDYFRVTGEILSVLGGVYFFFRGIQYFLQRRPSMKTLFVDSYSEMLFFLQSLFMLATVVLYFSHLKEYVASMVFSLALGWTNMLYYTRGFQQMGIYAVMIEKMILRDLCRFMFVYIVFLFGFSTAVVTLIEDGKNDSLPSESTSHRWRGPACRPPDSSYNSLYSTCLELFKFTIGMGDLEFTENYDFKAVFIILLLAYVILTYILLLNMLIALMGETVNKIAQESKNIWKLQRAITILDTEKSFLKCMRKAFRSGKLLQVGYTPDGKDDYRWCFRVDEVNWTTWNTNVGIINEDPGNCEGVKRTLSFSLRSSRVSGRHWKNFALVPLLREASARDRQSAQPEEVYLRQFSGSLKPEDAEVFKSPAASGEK
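Cells expressing TRPV1 were dye-loaded with Fluo-8 and read kinetically: 10 s baseline, 3 min after compound (agonist portion), then 2 min after EC20 capsaicin (allosteric enhancer portion). Calcium-bound dye fluorescence at 480/520 nm.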
TRPML1 blocker: inhibitors of human TRPML1 channel | Q9GZU1 | AID 624415 | activity change, negative = inhibition, % (no concentration beside the values) | 390,000 tested, 0.02% active | TRPML1-inducible cells, Ca2+ dye fluorescence, FDSS; hits give low values; inhibition of EC80 agonist-evoked calcium signal; in the data active means activity change below about -50%; inconclusive means about -30% to -50%; inactive means above about -30%;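 also: stimulus is agonist 54-4 at its EC80 concentration; % is scaled to controls: 0 for no effect and ±100 for the full control effect; compound concentration not given in the record; the text of the record puts the active cut at -80%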
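Tet-induced TRPML1-DL cells loaded with Ca8 no-wash calcium dye were read kinetically on FDSS. Compound addition was followed by EC80 agonist 54-4 (4 uM final); inhibition was read over 110 s.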
ClpP mod: qHTS Assay for Activators of ClpP; AID 651965, 2013; purified B. subtilis ClpP, FRET peptide cleavage, 20 min; ATP-dependent Clp protease proteolytic subunit (Bacillus subtilis (strain 168)), P80244; 340,000 tested, 1.9% active; Potency, µM (highest dose often 57.5 µM), without a hit: at the top dose activity change, negative = active; active = well fitted falling curve with a large enough effect; inconclusive = small, poorly fitted or top-dose-only effect; inactive = no such curve, though single readings can be large or run the other way; also: potency is read from the fitted curve at half-maximal effect; the source files actives as falling curves though it sought activators and does not explain the sign; nearly all actives have a fitted effect of over 65% in size; many hits overshoot -100%
Target sequence (P80244 whole entry, looked up): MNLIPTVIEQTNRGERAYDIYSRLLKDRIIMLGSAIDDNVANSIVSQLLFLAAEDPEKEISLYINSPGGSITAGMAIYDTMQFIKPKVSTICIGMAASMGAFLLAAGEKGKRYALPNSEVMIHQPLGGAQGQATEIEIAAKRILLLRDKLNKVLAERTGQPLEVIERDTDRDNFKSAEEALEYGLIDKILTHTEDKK
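ClpP 10 microg/mL final, pH 8 Tris/KCl buffer with BSA, glycerol, Tween-20; compound pinned in; FRET-FV substrate; RT 20 min; Ex320/Em430; ΔFRET vs ADEP 5.8 microM, DMSO, no enzyme.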
PINK1 modulator: PINK1 expression modulation; 410,000 tested, 0.2% active; PINK1 immunofluorescence, high-content cytometry, 24 h; Potency, µM (highest dose often 76.6 µM), inactives show at the top dose activation (PINK1 increase), actives largely listed as activators; active = well fitted activation curve with a large enough effect; inconclusive = small, poorly fitted or top-dose-only effect; inactive = flat fitted curve, though single readings scatter; cell line not stated here;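 also: potency is read from the fitted curve at half-maximal effect; % of control where 0% means no effect; nearly all actives have a fitted effect of over 65% in size; a mitochondrial uncoupler was the plate control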
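Readout is PINK1 immunofluorescence, quantified alongside mitochondrial, cell and nuclear markers by laser-scanning microplate cytometry. Cells from a stable line were exposed to compound titrations (5 concentrations) for 24 hours, with CCCP controls.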
TRPML1 agonist: human mucolipin-1 channel agonism; Q9GZU1; TRPML1-expressing cells, Ca2+ dye fluorescence, FDSS; host cell line not named in the record; reference of the full effect not given here; activation, % (no concentration beside the values); 410,000 tested, 0.12% active; in the data active = activation above about 50%; inconclusive = about 30% to 50%; inactive = below about 30%; also: 0% is about no effect; the text of the record puts the active cut at 80%
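Tetracycline-induced TRPML1-DL cells are seeded and incubated overnight before loading with a no-wash Ca2+ dye and quencher. Agonist activity is taken from the 110 s fluorescence read following compound pin-transfer on an FDSS, before EC80 54-4 challenge.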
* hit, by the source's call; ? = inconclusive; . = not tested or not shown; & = joins results of further samples; [ ] = dose if it differs, or a comment. The order is random; any-hit rate near 4.4%.

cpd	SMILES	Menin-MLL FL inh	Sfp PPTase inh	TRPV1 potentiator	TRPML1 blocker	ClpP mod	PINK1 modulator	TRPML1 agonist
1	COC(=O)c1sc(NC(=O)c2cnccn2)c(C(=O)OC)c1C	.	.	.	4	-2.8%	0.2%	1.5
2	O=C(Nc1ccccc1)Nc1cccc(Cl)c1	-1.7	-6%	-13	6	-1.1%	11%[38.3 µM]	0.1
3	CC(OC(=O)Cn1cnc2c1c(=O)n(C)c(=O)n2C)C(=O)Nc1ccc(Cl)cc1 (configuration not stated)	.	.	1	-10	.	-0.3%	-0.9
4	CCSc1nc2c(c(=O)n1Cc1ccccc1)SC(C)C2 (configuration not stated)	4.5	-11%	-11	-3	0.8%	.	1.4
5	CCCCN(CCCC)c1ccc(C=Nc2ccc(/C=C/c3ccnc4ccccc34)cc2)cc1C	.	.	.	.	-2.1%	0.3%	10
6	O=C1CCN(CCc2ccccc2)CCN1[C@H](CSc1ccc(Br)cc1)c1ccccc1	5.6	0%	-29	4	-8.8%	6.3%	0.9
7	Fc1ccccc1NC(=S)NCc1ccccc1	0.2	36%[activator]	-8	-3	.	3.4%	-0.8
8	CCCc1cc(C(=O)OCC(=O)NCCc2ccccc2)sc1C	.	.	.	-4	-1.4%	2.5%	0.2
9	CC(=O)c1c(C)[nH]c(C(=O)OCC(=O)Nc2c(C)cccc2C)c1C	.	.	-9	-11	0.2%	13%	0.1
10	CCC1(c2ccccc2)NC(=O)N(CC(=O)Nc2ccccc2C(=O)NC2CCCC2)C1=O (configuration not stated)	.	.	-4	4	-10%	1.7%	-0.4
11	COC(=O)c1ccc(NC(=O)c2cc3sccc3n2C)cc1	9.7	45µM*	5	18	-18%	2.3%	0.6
12	Cc1cccc(Oc2cc(NC(=O)c3ccccc3)cc([N+](=O)[O-])c2)c1	1.4	39%[activator]	?	-6	1.4%	?	1.1
13	N#Cc1nc(-c2ccc(Cl)cc2)oc1NCc1cccc2c1OCO2	3.3	-25%	5	31	11µM*	9.1%[38.3 µM]	1.1
14	ClC1=C(Cl)C(Cl)=C(Cl)C1=C/C=C/c1ccccc1	6.9	-9%	-1	-9	-1.0%	21%	0.4
15	C=CC[C@@H](CC(=O)N(CCO)Cc1ccccc1)C(=O)NC[C@H](OC(=O)[C@@H](CC=C)CC(=O)OC(C)(C)C)c1ccccc1	.	.	.	-1	-0.8%	1.5%	1.2
16	O=C(c1ccccc1)c1nn(-c2cccc(Cl)c2)ccc1=O	3.3	4%	11	15	.	0.6%	-0.6
17	Cc1cc(N2CC(C)OC(C)C2)nc(C(C)C)n1 (configuration not stated)	2.0	6%	-4	-28	.	1.8%	1.3
18	Cc1ccc(C)c(OCC(=O)NNC(=O)CCN2CCN(c3ccccc3)CC2)c1	.	.	13	3	-0.7%	1.3%	0.3
19	COc1ccc(-n2c(-c3ccc(C)cc3)n[nH]c2=S)cc1	0.7	89µM*	-17	-1	-12%	8.5%	-0.9
20	COc1ccccc1NC(=O)CSCC(N)=O	-1.0	11%	?	-3	-0.6%	2.7%[38.3 µM]	1.1
21	COc1ccc(C=O)cc1Oc1nc(Cl)ncc1F	6.4	20%	7	-6	.	2.3%	-0.6
22	Cc1nnc(SCC(=O)NC(=O)Nc2ccc3c(c2)OCCO3)s1	1.2	14%	10	41	-2.2%	-1.0%	-1.0
23	O=S(=O)(NCc1ccco1)c1cccc(S(=O)(=O)N2CCCCC2)c1	-2.1	10%	-6	4	-2.2%	-1.0%	-0.6
24	COc1ccc(NC(=O)c2c(NC(=O)CCC(=O)O)sc(-c3ccccc3)c2C)cc1	4.2	16µM*	6	3	-0.7%	1.1%	0.0
25	CCCCCCNC(=O)c1ccc(Br)o1	1.4[94.6 µM]	-10%&4%	-8	12	-6.7%	0.5%	-0.5
26	Cn1c(=O)c(-c2ccccc2)nc2cncnc21	0.5	8%	.	.	.	0.8%	.
27	CCOc1ccc(CNS(=O)(=O)c2cccs2)cc1OCC	-0.6	11%	-17	.	-1.0%	-0.8%	.
28	CC(C)(C)c1ccc(OCC(=O)NNC(=O)CCc2ccccc2)cc1	1.7	20%	-14	-2	1.4%	-0.4%	1.6
29	CC(=O)Nc1ccc(Nc2nnc(-c3ccc(C)c(S(=O)(=O)NCC4CCCO4)c3)c3ccccc23)cc1 (configuration not stated)	-3.8	8%	0	6	-1.8%	0.6%	0.7
30	O=C(c1ccc([N+](=O)[O-])cc1)N1CCN=C1SCc1ccccc1	2.0	-2%	-16	54	.	1.0%	2.6
31	CCc1ccc(Sc2cc(C(=O)O)c3ccccc3n2)cc1	.	.	.	9	-2.1%	-1.0%	1.4
32	CCCCc1nnc(NC(=O)CN2C(=O)C3CCCCC3C2=O)s1 (configuration not stated)	.	.	16	-8	-0.6%	0.9%	-1.0
33	Cc1cccc(C)c1OCC(=O)N(Cc1ccccc1F)C1CCS(=O)(=O)C1 (configuration not stated)	.	.	.	9	-1.3%	-0.6%	0.8
34	Cc1cccc(CNCc2ccccc2)c1	-1.0	13%	1	34	-9.2%	0.9%	0.7
35	CCOC(=O)c1c(NS(=O)(=O)Cc2ccccc2)sc2c1CCCC2	4.2	-11%	-17	7	0.7%	-2.6%	3.9
36	CC(C)[C@H](NS(=O)(=O)c1ccccc1)C(=O)OCC(=O)N1N=C(c2ccc(Cl)cc2)CC1c1ccco1 (some centres not stated)	12	-17%	-9	29	-12%	3.2%	1.2
37	Cc1ccc([C@@H]2CC=C(C(=O)O)[C@H](c3ccccc3F)N2S(=O)(=O)c2ccc(C)cc2)cc1	.	.	-18	-10	-0.3%	0.7%	-0.1
38	COc1cccc(NC(=O)CN(C)C(=O)c2ccc(NC(=O)CC3SC(N4CCCCC4)=NC3=O)cc2)c1 (configuration not stated)	.	.	2	-14	-1.1%	2.3%	0.0
39	Cn1ncc2c(Nc3ccccc3Cl)nc(Nc3ccccc3Cl)nc21	-4.2	-7%	-14	39	.	3.5%	2.9
40	CSc1cccc(NC(=O)CCCn2c(=O)c3cccn3c3cccnc32)c1	0.6	10%	6	39	-9.9%	2.2%	1.8
41	CCOC(=O)C1CCN(C(c2ccc(SC)cc2)c2c(O)cc(C)n(Cc3ccco3)c2=O)CC1 (configuration not stated)	.	.	.	-3	-0.9%	1.1%	0.5
42	CCN1CCN(CC(=O)Nc2ccc3c(c2)OCCO3)C(=O)C1=O	0.1	15%	-7	-8	-2.9%	4.6%	0.0
43	O=C(O)Cc1c(-c2ccccc2Cl)c2cc(Br)ccc2[nH]c1=O	0.0	9%	6	-10	-6.6%	1.3%	-0.8
44	CCN1C(=O)C2(Nc3ccccc3-c3nc4ccccc4n32)c2cc(OC)ccc21 (configuration not stated)	-0.9	12%	16	-11	-1.7%	5.8%	1.3
45	Cc1nn(CCCC(=O)NCc2cccc(Cl)c2)c(=O)c2c1sc1ccccc12	.	.	.	-15	?	0.2%	1.4
46	O=C(CCl)Nc1cccc(S(=O)(=O)NC2=NCCC2)c1	1.9	21%	13	29	-2.2%	3.3%	0.7
47	CC1CN(C(=O)c2ccccc2Sc2ccccc2C#N)CC(C)O1 (configuration not stated)	-1.7	18%	-6	10	-0.5%	-1.8%	-1.0
48	COc1ccc(CCNc2nc3c(c(=O)n(C)c(=O)n3C)n2C)cc1OC	0.6	6%	8	26	-1.2%	-0.3%[38.3 µM]	-0.3
49	Cc1ccc(C(C)NC(=O)c2cc3cc(Br)ccc3oc2=N)cc1 (configuration not stated)	.	-23%	26	-4	?	17%	-0.7
50	CNC(=O)N(O)C1N(/N=C/c2ccc(N(C)C)cc2)C(=S)SC1(C)C (configuration not stated)	-3.2	-2%	6	17	-4.8%	0.2%	0.7
51	O=C(CSc1ccc(Cl)cc1)Nc1ccc(N2CCN(c3ccccc3)CC2)c(F)c1	2.9	8%	0	9	0.9%	-2.1%	-0.3
52	Cc1c(Cl)cccc1-n1ncc(C(=O)NC2CCCCC2)c1C1CCN(C(=O)OC(C)(C)C)CC1	.	.	.	10	-0.8%	-0.2%	-0.5
53	COc1cccc(C(=O)Nc2cccc(NC(=O)c3cccs3)c2)c1	-3.9	3%	26	.	1.2%	-1.6%	.
54	COC(=O)C(Cc1ccc(O)cc1)NC(=O)CCc1nc2ccccc2s1 (configuration not stated)	-15	-4%	7	-11	.	-0.2%	1.2
55	COc1ccc(CC(=O)N2CCc3ccccc3C2)cc1	1.1	15%	-11	8	-2.7%	1.2%	-0.5
56	COc1ccc(S(=O)(=O)c2snnc2C)cc1	3.4	11%	-25	22	1.0%	0.7%	1.7
57	CCc1ccc(-n2c(=O)c3sc4ccccc4c3n(Cc3cccc(F)c3)c2=O)cc1	.	.	.	-16	-22%	-0.4%	0.3
58	Cc1cccn2c(=O)cc(COc3ccc(NC(=O)C(C)Oc4ccccc4)cc3)nc12 (configuration not stated)	.	.	.	19	-26%	0.4%	1.7
59	c1cnc2c(OCc3nc4ccccc4[nH]3)cccc2c1	0.5	-29%	?	-8	-1.9%	1.5%[38.3 µM]	0.0
60	COc1cccc(C2NC(C)(C(=O)O)C3C(=O)N(C(C)C)C(=O)C23)c1O (configuration not stated)	-1.6	?	4	-3	-1.3%	1.5%	0.0
61	Nc1ncc(Br)cc1S(=O)(=O)NCCC(=O)N1CCN(c2ncccn2)CC1	3.2	-4%	7	-8	-15%	-2.9%	0.2
62	CCN(CC)c1ccc(/C=N/NC(=O)c2cccc(S(=O)(=O)Nc3ccccc3OC)c2)cc1	?	15%	?	10	0.7%	0.6%	1.4
